BJeLR viab HTS = lowers viability of BJeLR cells. BJeLR fibroblasts viability, CellTiterGlo ATP luminescence, 48 h; HRASV12, hTERT and SV40 LT/ST transformed. viability loss activity score, % (no concentration beside the values). 30,000 tested, 0.64% active. AID 2275; in the data active means viability loss activity score above about 50%; about a fifth of its hits are not listed in these tables;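 further: higher score means fewer live cells and less ATP luminescence; stock transfer was 50 or 100 nL into about 30 µL; 0% = vehicle wells and 100% = a reference killing control; one replicate is shown; the record names a cut of 85%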
A1 inh = A1 inhibition; AID 2241; 21,000 tested, 0.51% active; MEF A1-2A-BIM cells, caspase-Glo luminescence, 3 h; percent of clofoctol signal, DMSO as zero; caspase activation, % (no concentration beside the values);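 active means most replicate scores above 10, or exactly half above 10 with mean activity above 10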;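 further: effector caspase 3 and 7 activity cleaving a DEVD luciferin substrate; 50 nL library stock added to about 30 µL; numbers are from one replicate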
The depositor's hits bear a star; . = not tested or not shown. An excerpt, so the mix of outcomes need not match the whole.

Molecule | A1 inh | BJeLR viab HTS
C[C@H]1CN([C@@H](C)CO)C(=O)c2cccc(NS(=O)(=O)c3ccc(F)cc3)c2O[C@@H]1CN(C)CC1CCCCC1 | . | 1.4
Cc1ccc(NC(=O)N2c3ccccc3Sc3ccccc32)c(C)c1 | . | -4.4
C[C@@H]1CN([C@H](C)CO)C(=O)c2cc(NS(=O)(=O)c3cccs3)ccc2O[C@H]1CN(C)Cc1ccc2c(c1)OCO2 | -0.2 | 5.0
C[C@H]1CN([C@@H](C)CO)C(=O)c2cc(NC(=O)CCC(F)(F)F)ccc2O[C@H]1CN(C)Cc1ccncc1 | -0.3 | 2.5
Cn1nccc1C(=O)NCCN1C(=O)OC2(CCCCC2)C1(C)O (stereo not drawn) | 1.9 | 0.6
C[C@@H]1CN([C@H](C)CO)C(=O)c2cccc(NC(=O)c3ccc(-c4nccs4)cc3)c2O[C@@H]1CN(C)C(=O)Nc1ccc2c(c1)OCO2 | . | 2.8
COc1ccc(S(=O)(=O)Nc2ccc3c(c2)C(=O)N([C@@H](C)CO)C[C@H](C)[C@H](CN(C)Cc2ccc(C(=O)Nc4ccccc4N)cc2)O3)cc1 | . | 7.2
C[C@@H]1CN([C@@H](C)CO)C(=O)c2cccc(NC(=O)Nc3ccc(C(F)(F)F)cc3)c2O[C@H]1CN(C)C(=O)Nc1cccc2ccccc12 | . | -5.0
C[C@@H]1CN([C@@H](C)CO)C(=O)c2cc(NC(=O)CCCN(C)C)ccc2O[C@H]1CN(C)C | -0.7 | 2.5
Nc1c(-c2ccccc2)n[nH]c1-c1ccccc1 | . | 4.8
CNC[C@H]1Oc2c(NC(=O)c3nc4ccccc4s3)cccc2C(=O)N([C@H](C)CO)C[C@H]1C | . | -4.3
C[C@H]1CN([C@@H](C)CO)C(=O)c2cccc(NC(=O)Nc3ccc4c(c3)OCO4)c2O[C@H]1CN(C)CC1CCCCC1 | . | 0.8
COc1ccc(NC(=O)N(C)C[C@@H]2Oc3ccc(NC(=O)Cc4ccccc4)cc3C(=O)N([C@@H](C)CO)C[C@H]2C)cc1 | 0.3 | -0.1
Cn1c(SCC(=O)c2ccccc2)nnc1C(F)(F)F | 0.4 | 1.1
CCSC1=C(C#N)C(c2ccc(C(C)C)cc2)C2=C(CCCC2=O)N1 (stereo not drawn) | . | -11
C[C@@H]1CN([C@@H](C)CO)C(=O)c2cccc(NS(=O)(=O)c3ccc(Cl)cc3)c2O[C@H]1CN(C)C(=O)Nc1ccc2c(c1)OCO2 | . | -6.2
C[C@H]1CN([C@@H](C)CO)C(=O)c2cccc(NC(=O)c3cnccn3)c2O[C@H]1CN(C)S(=O)(=O)c1cn(C)cn1 | . | 2.5
Cc1onc(-c2ccccc2)c1C(=O)NCc1ccc2c(c1)OCO2 | -0.6 | -7.2
Cc1noc(C)c1NC(=O)N(C)C[C@H]1Oc2ccc(NS(=O)(=O)c3c(C)noc3C)cc2C(=O)N([C@H](C)CO)C[C@H]1C | 0.1 | -0.4
COc1ccc(NC(=O)N(C)C[C@@H]2Oc3ccc(NC(=O)C4CCCCC4)cc3C(=O)N([C@@H](C)CO)C[C@@H]2C)cc1 | -0.3 | -2.0

Quoted at random: two compounds from above.
Molecule | A1 inh | BJeLR viab HTS
Cc1onc(-c2ccccc2)c1C(=O)NCc1ccc2c(c1)OCO2 | -0.6 | -7.2
C[C@@H]1CN([C@@H](C)CO)C(=O)c2cccc(NS(=O)(=O)c3ccc(Cl)cc3)c2O[C@H]1CN(C)C(=O)Nc1ccc2c(c1)OCO2 | . | -6.2

The main list resumes, starting 2 compounds before the break.
Molecule | A1 inh | BJeLR viab HTS
Cc1noc(C)c1NC(=O)N(C)C[C@H]1Oc2ccc(NS(=O)(=O)c3c(C)noc3C)cc2C(=O)N([C@H](C)CO)C[C@H]1C | 0.1 | -0.4
COc1ccc(NC(=O)N(C)C[C@@H]2Oc3ccc(NC(=O)C4CCCCC4)cc3C(=O)N([C@@H](C)CO)C[C@@H]2C)cc1 | -0.3 | -2.0
C[C@@H]1CN([C@H](C)CO)C(=O)c2cc(NC(=O)Cc3cn(C)c4ccccc34)ccc2O[C@H]1CN(C)C(=O)Nc1cccc2ccccc12 | -0.2 | 0.3
C[C@H](CO)N1C[C@H](C)[C@H](CN(C)Cc2ccc3c(c2)OCO3)Oc2c(NS(=O)(=O)c3ccccc3)cccc2C1=O | . | -3.0
O=C(OCc1ccccc1)Oc1cncc(C(=O)O)c1 | -0.4 | -5.8
CC1(C)CC2CC(C)(CN2C(=O)Nc2ccc3snnc3c2)C1 (stereo not drawn) | 0.5 | 5.6
CCc1nc(NCC(C)C)c(C#N)c2c1CCCC2 | 1.4 | -0.4
N=c1n(CC(=O)c2ccc(Cl)c(Cl)c2)c2ccccc2n1Cc1ccccc1 | 0.6 | 0.8
CNC[C@H]1Oc2ccc(NS(=O)(=O)c3cn(C)cn3)cc2C(=O)N([C@H](C)CO)C[C@H]1C | 0.2 | -4.1
Fc1cnc(Nc2cccc(Br)c2)nc1Nc1cccc(Br)c1 | -0.8 | 3.8
COC(OC)(C(=O)c1ccccc1)c1ccccc1 | 0.2 | -2.9
Cc1noc(C)c1S(=O)(=O)Nc1ccc2c(c1)C(=O)N([C@@H](C)CO)C[C@H](C)[C@H](CN(C)Cc1ccncc1)O2 | 1.1 | 1.7
O=C1c2ccc(O)cc2C(=O)c2ccc(O)cc21 | -3.3 | 9.4
CNS(=O)(=O)c1ccc(C(F)(F)F)cc1S(=O)c1ccccc1C(=O)O (stereo not drawn) | 0.0 | 2.1
C[C@@H]1CN([C@@H](C)CO)C(=O)c2cc(NS(=O)(=O)c3cccs3)ccc2O[C@H]1CN(C)S(=O)(=O)c1ccccc1 | 0.7 | 1.3
O=C(CCCn1ncn2c(cc3occc32)c1=O)N1CCCCC1 | 0.0 | 6.5
Cc1noc(C)c1S(=O)(=O)Nc1ccc2c(c1)C(=O)N([C@H](C)CO)C[C@@H](C)[C@@H](CN(C)C(=O)Nc1ccc(F)cc1)O2 | 1.1 | 2.1
CC(NC(=O)c1ccc(C(C)(C)C)cc1)C(=O)O (stereo not drawn) | 0.8 | -3.8
C[C@@H]1CN([C@H](C)CO)C(=O)c2cc(NS(=O)(=O)c3ccc(Cl)cc3)ccc2O[C@H]1CN(C)Cc1ccc(C(=O)Nc2ccccc2N)cc1 | . | 0.3
C[C@@H]1CN([C@H](C)CO)C(=O)c2cccc(NC(=O)C3CC3)c2O[C@@H]1CN(C)S(C)(=O)=O | . | 0.9
Cc1[nH]c(=S)c(C#N)c(C)c1CCC#N | -0.5 | 0.0
COC(=O)c1cc2c(s1)-c1cc(Cl)ccc1SC2 | 1.0 | 2.7

Next part:
Molecule | A1 inh | BJeLR viab HTS
CC(NC(=O)Nc1ncccn1)(C(F)(F)F)C(F)(F)F | 0.0 | -2.3
COc1cc(C2OC[C@@H]3[C@@H](c4cc(OC)c(O)c(OC)c4)OC[C@H]23)cc(OC)c1O (stereo partly drawn) | 0.9 | -1.9
CC(C)NC(=O)Nc1cccc2c1O[C@H](CN(C)Cc1ccc3c(c1)OCO3)[C@H](C)CN([C@H](C)CO)C2=O | . | -2.0
CC(C)NC(=O)Nc1cccc2c1O[C@@H](CN(C)S(=O)(=O)c1ccccc1)[C@H](C)CN([C@@H](C)CO)C2=O | . | 6.9
C[C@H](CO)N1C[C@H](C)[C@@H](CN(C)S(C)(=O)=O)Oc2ccc(NC(=O)Nc3ccc4c(c3)OCO4)cc2C1=O | -0.1 | 3.3
COc1ccc(S(=O)(=O)Nc2ccc3c(c2)C(=O)N([C@@H](C)CO)C[C@H](C)[C@@H](CN(C)Cc2ccc(C(=O)Nc4ccccc4N)cc2)O3)cc1 | . | -1.9
COc1ccccc1NC(=O)Cn1c(=O)n2nc(C)nc2c2ccccc21 | 0.3 | 1.4
C=CCNc1nc(C)nc(OC)n1 | -0.3 | -2.4
CC(C)NC(=O)N(C)C[C@@H]1Oc2ccc(NS(=O)(=O)c3cn(C)cn3)cc2C(=O)N([C@@H](C)CO)C[C@@H]1C | -0.5 | -4.5
O=c1c(O)c(-c2ccccc2)oc2cc(O)ccc12 | -0.2 | -0.7
C[C@@H]1CN([C@@H](C)CO)C(=O)c2cccc(NC(=O)c3nc4ccccc4s3)c2O[C@H]1CN(C)S(=O)(=O)c1ccc(Cl)cc1 | . | -5.9
CCN(CC)C(=O)c1sc2nc3c(cc2c1N)CCCCC3 | -5.7 | 2.9
Cc1ccc(S(=O)(=O)N(C)C[C@H]2Oc3ccc(NS(=O)(=O)c4ccc(F)cc4)cc3C(=O)N([C@H](C)CO)C[C@H]2C)cc1 | 0.8 | 0.8
O=C(NCC(c1cccnc1)N1CCN(Cc2ccccc2)CC1)c1ccccc1 (stereo not drawn) | 0.5 | -1.4
CCOC(=O)CSc1sc(C(=O)OCC)c2c1S(=O)(=O)N(C)c1ccccc1-2 | 1.0 | 2.4
O=C(O)c1ccccc1Sc1ccccc1S(=O)(=O)NC12CC3CC(CC(C3)C1)C2 | . | -0.9
COc1ccc(S(=O)(=O)Nc2ccc3c(c2)C(=O)N([C@H](C)CO)C[C@@H](C)[C@@H](CN(C)C(=O)NC(C)C)O3)cc1 | -0.5 | -3.1
COc1c(OC2OC(CO)C(O)C(O)C2O)cc(O)c2c1OC(c1ccccc1)CC2=O (stereo not drawn) | -0.7 | 16
C[C@@H]1CN([C@H](C)CO)C(=O)c2cc(NC(=O)CCCCCC(=O)Nc3ccccc3N)ccc2O[C@H]1CN(C)S(=O)(=O)c1cccs1 | . | -2.5
C[C@@H]1CN([C@@H](C)CO)C(=O)c2cccc(NS(=O)(=O)c3ccc(F)cc3)c2O[C@H]1CN(C)C | . | 5.1

Continuation.
Molecule | A1 inh | BJeLR viab HTS
CC(=O)Nc1ccc(Nc2ncnc3c2c(-c2ccccc2)cn3-c2cccc(C)c2)cc1 | -0.8 | -5.7
C[C@H](CO)N1C[C@H](C)[C@@H](CN(C)Cc2ccccc2)Oc2ccc(NS(=O)(=O)c3cccs3)cc2C1=O | -0.2 | 1.7
C[C@H](CO)N1C[C@H](C)[C@H](CN(C)S(C)(=O)=O)Oc2c(NC(=O)Nc3ccc(C(F)(F)F)cc3)cccc2C1=O | . | 0.6
C[C@H](CO)N1C[C@H](C)[C@@H](CN(C)C(=O)Nc2ccc(C(F)(F)F)cc2)Oc2c(cccc2N(C)C)C1=O | . | -3.3
CC(C)Cc1ccc(C(C)C(=O)NC(C)Cc2c[nH]c3ccccc23)cc1 (stereo not drawn) | 0.4 | 5.9
CC(C)NC(=O)Nc1ccc2c(c1)C(=O)N([C@H](C)CO)C[C@@H](C)[C@@H](CN(C)S(=O)(=O)c1cn(C)cn1)O2 | -0.2 | -2.8
CCN(CC)S(=O)(=O)c1ccc2c(c1)c(=O)c(C(=O)O)cn2C | 0.7 | 4.0
CCOc1ccc(CCNC(=O)c2cc3c(=O)oc4ccc(C)cc4c3s2)cc1 | . | -0.3
C[C@@H]1CN([C@H](C)CO)C(=O)c2cc(N(C)C)ccc2O[C@@H]1CN(C)S(=O)(=O)c1ccccc1 | 0.0 | -0.6
O=C1CCC(=O)N1c1ccccc1-c1ccccc1 | 0.5 | 4.1
Cc1ccc(-n2nnc3c(SCC(=O)NCc4ccccc4Cl)ncnc32)cc1 | -2.4 | -7.1
C[C@@H]1CN([C@@H](C)CO)C(=O)c2cccc(NC(=O)Nc3ccc(C(F)(F)F)cc3)c2O[C@H]1CN(C)S(=O)(=O)c1cccs1 | . | -2.3
C[C@@H]1CN([C@@H](C)CO)C(=O)c2cccc(NC(=O)C3CC3)c2O[C@@H]1CN(C)C(=O)Nc1ccccc1 | . | -0.5
C[C@H]1CN([C@@H](C)CO)C(=O)c2cccc(NC(=O)C3CC3)c2O[C@H]1CN(C)C(=O)Nc1ccc(F)cc1 | . | 0.3
COc1ccccc1C(=O)Nc1ccc(CC#N)cc1 | -2.2 | 1.5
COC(=O)CN1c2ccccc2NC2=C(C(=O)CC(C)(C)C2)C1c1ccc(OC)cc1 (stereo not drawn) | -0.8 | 0.3
CNC[C@@H]1Oc2ccc(NS(=O)(=O)c3ccccc3)cc2C(=O)N([C@@H](C)CO)C[C@H]1C | 0.2 | 4.7
C[C@H]1CN([C@@H](C)CO)C(=O)c2cc(NC(=O)CCN3CCOCC3)ccc2O[C@H]1CN(C)C(=O)Nc1ccc(C(F)(F)F)cc1 | 0.0 | 3.4
Cc1nn(C(=O)c2ccc(Cl)cc2)c(C)c1Sc1nnc(C(F)(F)F)n1C | 0.6 | -15
CNC[C@H]1Oc2ccc(NC(=O)CCN3CCOCC3)cc2C(=O)N([C@@H](C)CO)C[C@H]1C | 0.4 | 0.1

More structures follow.
Molecule | A1 inh | BJeLR viab HTS
Cc1cc2c(cc1C)C(=O)C(c1ccccc1)=C(NCc1ccccc1)C2=O | 0.3 | -1.3
N#Cc1ccc(/C=C/C(=O)NCc2ccccc2)cc1 | 0.1 | -0.4
O=S(=O)(/N=C(\Nc1ccccc1)c1ccccc1)c1ccc(Br)cc1 | 1.0 | -0.6
Cc1ccc(N2CCN(c3ccc(C)cc3)C23C(=O)c2ccccc2C3=O)cc1 | . | 5.6
O=c1c2c3c(sc2[nH]c(=S)n1Cc1ccccc1)CCCCC3 | -0.3 | 4.2
O=C(CC12CC3CC(CC(C3)C1)C2)N1CCN(c2ccc(F)cc2)CC1 | . | 3.3

High-throughput results (PubChem BioAssay)
